# Sa RN4220 lethal: kills Staphylococcus aureus RN4220. S. aureus RN4220 growth, OD600, 16 h. inhibition, % (test concentration not listed). actives 0.33% (n = 330,000);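 active means z-score of -3 or lower and OD600 up to 0.18 on both plates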;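 further: plate controls were untreated cells for no effect and reference antibiotic for full effect; stock transfer was 100 nL into about 80 µL; one replicate is shown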
# Sa ugtP lethal: growth inhibition of S. aureus ugtP deletion strain | S. aureus RN4220 ugtP deletion, OD600 growth, 16 h; some inactives read as strong as hits | growth inhibition, % (concentration not given with the values) | actives 0.54% (n = 330,000) | AID 1259309;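 active means z-score under -3 and OD600 up to 0.15 on both plates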;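 further: plate controls were untreated wells for no effect and antibiotic for full effect; wells of about 80 µL received 100 nL stock; the first replicate is given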
# PrP UTR inh: inhibition of PrP 5' UTR reporter expression; cell-based PrP 5' UTR mRNA reporter, plate reader; inhibition, % (test concentration not listed); actives 0.35% (n = 340,000); AID 488862;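 active means every replicate at 50% or more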;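 further: 0 = median of the neutral control wells; tested in H4 reporter cells; numbers are from one replicate; inactives centre near -14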
# BJeLR lethal: kills HRASV12-expressing BJeLR cells | BJeLR (HRASV12) viability, CellTiter-Glo ATP luminescence, 48 h; reference of the scale not given here | inhibition, % (test concentration not listed) | actives 0.17% (n = 300,000) | AID 1554;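 active means replicate mean above 50%; inconclusive means above 50% but judged a plate artefact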;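 further: 50 nL library stock added to about 25 µL; numbers are from one replicate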
# Autofluor counter: compound fluorescence in toxin protease inhibitor counterscreen. compound autofluorescence counterscreen, microsphere flow cytometry; stronger effect = higher value. fluorescence intensity (test concentration not listed). actives 3.1% (n = 360,000). AID 624483;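 active means at least 3 SD above the mean of all compounds, about 16000 in these data; inconclusive means too few beads counted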;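 further: 100 nL of 1 mM stock went into each well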
# Mtb hypoxia rep: Mtb hypoxia fluorescent reporter inhibition | M. tuberculosis hypoxia-regulated fluorescent reporter, fluorescence | fluorescence inhibition, % (no concentration beside the values) | actives 0.1% (n = 300,000);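 active means 35 to 45% if threefold the growth effect, above 45% if 1.5-fold the growth effect; inactive means the rest, general growth blockers included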;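 further: wells of about 50 µL received 100 nL stock; 0% = vehicle wells and 100% = reference inhibitor wells; whole bacteria with a GFP reporter of the hypoxia response; strong numbers were not always called active; many hits fall short of the cut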
# Mtb hypoxia rep growth: second read-out of Mtb hypoxia rep, no call of its own (marks repeat the call); growth inhibition, %; measured here: M. tuberculosis growth (absorbance);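 0% = vehicle and 100% = reference antibiotic; read after six days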
# Numbers without * were called inactive; ? = inconclusive; . = not tested or not shown; & = joins results of further samples.
SMILES,Sa RN4220 lethal,Sa ugtP lethal,PrP UTR inh,BJeLR lethal,Autofluor counter,Mtb hypoxia rep,Mtb hypoxia rep growth
COc1ccccc1-n1c(=O)oc2ccc(Cl)cc2c1=O,29.9,-0.9,-33.8,.,2494,.,.
CS(=O)(=O)c1ccc(CNC(=O)C2(C(F)(F)F)C/C(=C/CCO)CCCO2)cc1 (configuration not stated),.,.,-12.8,-1.6,3978,.,.
Nc1nc(-c2ccccn2)nc(N)c1Cc1ccc(Cl)cc1Cl,1.0,3.3,-56.0,9.6,3833,9.6,18.7
OCCC1CC(O)C(O)[C@@]2(CCCCO2)O1 (some centres not stated),8.8&-3.3&7.1,-1.8&-3.2&2.1,.,.,.,12.7&0.7&-1.4,-2.9&4.9&8.6
O=C(c1ccc(Br)o1)N1CCN(c2ccc3nnc(-c4ccc(F)cc4)n3n2)CC1,-0.4,6.7,-6.7,0.3,5917,-6.0,7.1
CC(=O)Oc1ccc2c3c(c(=O)oc2c1)CCCC3,6.5,-1.9,-12.7,-13.9,3676,8.5,0.0
O=C(Cc1ccccc1)Nn1c(O)c(/C=C2\C=Nc3ccccc32)sc1=S,14.0,8.3,-0.2,9.3,2741,13.3,4.5
COc1ccc(NC(=O)c2cc(C)cc(C)c2)cc1S(=O)(=O)N1CCCCC1,-1.7,0.2,-4.2,.,8669,0.1,17.0
CC1CCCCN1C(=O)CN1C(=O)CN(C)C(=O)c2ccccc21 (configuration not stated),3.6,3.5,-21.3,-0.8,4115,3.4,-0.9
COc1cc(OC)cc(C(=O)NCC(=O)NCCN2C(=O)S/C(=C\c3ccccc3Cl)C2=O)c1,1.5,2.6,9.2,.,8778,-0.5,8.1
COc1ccc2c(CC(=O)NCCN3C(=O)S/C(=C\c4cccnc4)C3=O)coc2c1,-15.2,-1.0,-19.7,2.2,4372,-2.3,6.6
CC1=C(C(=O)Nc2ccc(Br)cc2)C(c2ccco2)NC(=O)N1 (configuration not stated),-3.7,-8.2,-14.7,-5.6,11006,-7.9,-5.3
CCC(=O)c1cn(/C(=C\C(=O)OC(C)(C)C)CCC(OC)OC)cc1CC,.,.,-7.9,5.2,3729,.,.
CSCCC(NS(=O)(=O)c1ccc2ccccc2c1)C(=O)O (configuration not stated),4.4,3.3,-11.6,3.9,3361,10.8,8.9
COc1ccc(NC(=O)c2cc(S(=O)(=O)N3CCOCC3)ccc2C)cc1S(=O)(=O)N1CCOCC1,1.6,3.2,-10.6,.,4066,4.9,2.4

# Among those listed so far, these have a halogen:
SMILES,Sa RN4220 lethal,Sa ugtP lethal,PrP UTR inh,BJeLR lethal,Autofluor counter,Mtb hypoxia rep,Mtb hypoxia rep growth
COc1ccccc1-n1c(=O)oc2ccc(Cl)cc2c1=O,29.9,-0.9,-33.8,.,2494,.,.
CS(=O)(=O)c1ccc(CNC(=O)C2(C(F)(F)F)C/C(=C/CCO)CCCO2)cc1 (configuration not stated),.,.,-12.8,-1.6,3978,.,.
Nc1nc(-c2ccccn2)nc(N)c1Cc1ccc(Cl)cc1Cl,1.0,3.3,-56.0,9.6,3833,9.6,18.7
O=C(c1ccc(Br)o1)N1CCN(c2ccc3nnc(-c4ccc(F)cc4)n3n2)CC1,-0.4,6.7,-6.7,0.3,5917,-6.0,7.1
COc1cc(OC)cc(C(=O)NCC(=O)NCCN2C(=O)S/C(=C\c3ccccc3Cl)C2=O)c1,1.5,2.6,9.2,.,8778,-0.5,8.1
CC1=C(C(=O)Nc2ccc(Br)cc2)C(c2ccco2)NC(=O)N1 (configuration not stated),-3.7,-8.2,-14.7,-5.6,11006,-7.9,-5.3

# Next section.
SMILES,Sa RN4220 lethal,Sa ugtP lethal,PrP UTR inh,BJeLR lethal,Autofluor counter,Mtb hypoxia rep,Mtb hypoxia rep growth
CC(=O)NS(=O)(=O)c1ccc(NC(=O)/C=C/c2ccco2)cc1,1.6,4.5,-17.0,14.5,4233,4.6,-2.8
C=CCNC(=O)N1CCC(CO)(Cc2ccc(Cl)cc2)CC1,5.6,13.1,-11.8,-2.2,2797,1.4,-0.5
O=C(Cc1ccc(Br)cc1)Nc1cccc(Cl)c1,-2.2,-10.9,-22.7,-5.6,4509,9.1,5.5
Cc1nc(-c2noc(-c3ccccc3Cl)n2)c(C(F)(F)F)o1,1.0,7.6,-46.9,2.1,5646,5.6,10.7
COc1cc(C(=O)Nc2sc3c(c2C(=O)NCc2ccco2)CCCC3)cc(OC)c1OC,4.0,0.2,-5.1,7.8,4964,.,.
COc1cc(C(=O)Nn2c(CC(C)C)nc3ccccc3c2=O)cc(OC)c1OC,1.5,-3.5,-3.1,-11.4,3215,5.9,0.4
CCC(C)(C)n1nnnc1C(C(C)C)N(CCN1CCOCC1)Cc1cc2cccc(C)c2[nH]c1=O (configuration not stated),-2.2,-9.8,-27.6,8.7,21802*,-9.1,3.7
CCN1C(=O)N(CC)C(=O)C2(Cc3ccccc3N3CCN(c4ccccc4)CC32)C1=O (configuration not stated),3.2,88.5*,.,-1.3,.,3.1,-2.6
O=C1OC(=O)C2C1[C@@H]1CC[C@H]2O1 (some centres not stated),.,.,-4.0,-2.5,5801,.,.
CCc1ccc(NC(=O)c2nc(S(=O)(=O)Cc3ccccc3)ncc2Cl)cc1,.,.,-19.8,35.0,5463,.,.
Cc1ccc2c(CN(C)Cc3ccc(Cl)cc3Cl)cc(=O)oc2c1,1.3,14.0,-25.7,-8.8,3741,8.7,-5.6
CC(=O)Nc1cn(-c2ccccc2)nc1-c1ccccc1,0.4,2.1,-26.6,-11.5,4122,3.0,9.4
Cc1cc(CNC(=O)C2CCC(=O)N(CCc3ccc(Cl)cc3)C2)no1 (configuration not stated),-0.5,-0.2,-7.8,2.2,5222,-3.9,-7.3
COc1ccc(C/C(=N\OC(C)=O)c2ccc(OC)cc2)cc1,.,.,-27.8,-2.2,4182,.,.
COc1cc(NC(=O)COC(=O)CCc2nc3ccccc3c(=O)[nH]2)cc(OC)c1,-1.9,1.9,-14.7,.,3541,12.0,6.6
COc1nc(NCCN2CCOCC2)nc(Nc2ccc([N+](=O)[O-])cc2)n1,3.8,3.3,1.8,-25.4,7933,0.3,-0.4
COc1cccc(CNC(=O)N2CCN(S(=O)(=O)c3ccc(Cl)cc3)CC2)c1,-3.6,8.0,-6.2,-3.0,4394,4.9,0.6
CC1(C)CN=C(NCc2ccccc2)S1,.,.,-19.4,-18.6,3583,.,.
Cc1cc(C)c(OCCOCCN2CCNCC2)c(C)c1,2.7,4.5,-6.5,-0.8,?,.,.
CCn1c(SCC(=O)NC2CCCC2)nnc1C(C)C,3.2,9.8,-41.6,4.3,3629,0.8,1.1
COc1ccc(C(=O)Nc2ccnn2C2CCN(C3CCC3)CC2)cc1,-1.2,-2.3,-4.5,-4.4,6389,-3.9,-0.4
Cc1cc(C)nc(N/N=C/c2ccccc2OCc2ccccc2)n1,.,.,-5.1,-12.1,3299,.,.
Cn1cc(CNCc2cnc3ccccn23)c(-c2ccc(Oc3ccccc3)cc2)n1,4.4,-2.1,-46.5,6.2,2220,-10.1,2.9
O=C(NC(Nc1nc2ccc([N+](=O)[O-])cc2s1)(C(F)(F)F)C(F)(F)F)c1ccccc1Cl,100.0*,98.5*,50.2,59.5*,2549,25.1,34.5
CCN1CCN(CCNC(=O)c2ccc(CS(=O)(=O)c3ccccc3C)o2)CC1,-5.9,1.8,-20.0,11.3,3926,-0.8,4.3
O=C(Cc1ccccc1F)Nc1ccc2c(c1)CCC2,-0.3,7.8,-71.3,-5.8,4117,-1.2,4.6
CC(C)(C)NS(=O)(=O)c1ccc(OCC(=O)NCCC2=CCCCC2)cc1,0.9,-4.4,-17.1,5.2,8415,10.7,6.5
O=C(O)CCc1ccc(-c2cccs2)n1CCc1ccccc1,26.7,-0.4,-8.3,1.0,3411,16.6,-2.5
O=S(=O)(c1cccc(C(F)(F)F)c1)N1CCN(CC(O)COCc2ccccc2)CC1 (configuration not stated),9.2,6.1,-22.2,.,2808,25.3,8.9
O=C(NCc1ccc(F)cc1)C1CCN(S(=O)(=O)N2CCC3(CC2)OCCO3)CC1,3.0,3.7,-40.2,-4.3,10395,5.2,5.5
O=C1/C(=C/c2ccc(F)cc2)Oc2cc(OC(=O)N3CCOCC3)ccc21,4.8,13.2,-23.5,4.5,5858,5.1,2.0
O=C(CCc1nnc2ccc(NCc3ccccc3)nn12)NC1CCCCC1,2.4,12.4,-18.8,-3.0,5128,0.7,6.2
Cc1nc(SCC(=O)N2CCc3ccccc32)n[nH]1,2.0,5.7,-32.6,-3.6,2512,3.5,7.2
CCN(CC(=O)Nc1ccc(NC(C)=O)cc1)C(=O)c1cccc2ccccc12,6.3,10.2,-8.5,.,3911,5.6,3.4
CSC1=N/C(=C\c2ccccc2F)C(=O)S1,-0.3,0.4,-17.2,-2.0,3956,-4.8,-2.1
Cc1cc2nnc(SCC(=O)NC3CCCCC3)n2c(N)n1,3.2,4.8,1.8,10.0,4480,0.3,1.1
CC(=O)N1c2ccc(S(=O)(=O)NCC3CCC(C(=O)N4CC(C)CC(C)C4)CC3)cc2CC1C (configuration not stated),-1.1,2.3,-20.0,1.3,4427,4.8,-2.1
Cc1ccc(NC(=O)C(C)N=C2NS(=O)(=O)c3ccccc32)cc1 (configuration not stated),10.8,3.3,-21.1,-16.7,3874,5.1,16.8
CCCCC(=O)N1CCN(c2nc3ccc(OCC)cc3s2)CC1,2.2,-0.6,-0.5,-3.2,5193,8.6,13.8
CCOc1ccc2nc(N3CCCN(C(=O)Nc4ccccc4C)CC3)c(C#N)cc2c1,7.5,-6.0,-8.8,-8.3,9938,13.3,5.1
O=c1nc(Nc2ccc([N+](=O)[O-])cc2)[nH]c(=O)[nH]1,1.6,0.3,-9.3,1.7,3846,-1.2,-5.8
Cc1ccc(SCCNC(=O)C(CO)(CO)CO)cc1,-3.0,-4.2,-23.9,0.0,12730,-1.2,-2.5
CC(=O)c1ccc(OCCCC(=O)NC2CCC(C)CC2)cc1 (configuration not stated),-1.3,16.0,-24.1,-7.8,3744,8.0,7.1
O=[N+]([O-])c1cc2c(cc1C=Nn1c(-c3ccccn3)n[nH]c1=S)OCO2,-4.1,10.9,.,.,.,8.4,-1.2
COc1ccc(NC(=O)c2cc(-c3ccc(C)o3)nc3ccccc23)c(OC)c1,6.7,-0.9,.,12.4,.,3.5,-1.2
Cc1ccc(Nc2ncnc3c2oc2ccccc23)cc1,3.2,-14.5,-104.1,3.2,3154,20.7,7.1
COc1ccccc1C(=O)NNC(=S)NC(=O)c1cc(OC)c(OC)c(OC)c1,28.5,19.3,-9.0,0.6,3539,-15.0,1.5
O=C(CSc1ncnc2c1oc1ccccc12)c1cccs1,10.8,-3.6,-84.1,-1.6,2985,9.0,0.0
Cc1cccc(C)c1NCc1n[nH]c(=S)n1-c1ccccc1,10.1,2.8,2.6,-18.1,4704,8.6,0.7
Cc1cc(C#N)c(C)c(SCc2[nH]nc3c2C(c2ccccc2)C(C#N)=C(N)O3)n1 (configuration not stated),11.5,-10.8,-21.2,-12.6,9377,-1.5,18.5
CC1CCN(C(=S)c2ccc3c(c2)OCO3)CC1,7.3,0.3,-25.8,-0.4,10082,12.3,13.5
O=C(COC(=O)CSc1nnc(-c2ccc(Cl)cc2)o1)NCc1ccc2c(c1)OCO2,0.7,-5.2,-15.9,-1.9,2370,.,.
COc1cc(OC)cc(C(=O)NCCSCc2ccco2)c1,-1.0,3.0,.,5.7,.,0.3,-2.1
CCOC(=O)c1sc(NC(=O)CN2C(=O)NC3(CC(C)CC(C)(C)C3)C2=O)c(C(=O)OCC)c1C (configuration not stated),4.1,-10.5,8.3,-1.8,2800,1.7,-1.2
CNC(=O)/C(C#N)=c1\s/c(=C/C(=O)OC)c(=O)n1-c1ccccc1,.,.,-15.3,-3.3,4332,.,.
O=C(COC(=O)c1ccc(O)cc1)NCc1ccc2c(c1)OCO2,-0.8,-0.9,-24.2,-3.7,2237,-11.9,0.6
O=C(O)CCCn1cc(NC(=O)COc2ccc(F)cc2F)cn1,4.6,3.4,-11.5,0.3,6321,-5.6,2.9
CCN(CC)S(=O)(=O)c1ccc(N2CCOCC2)c(NC(=O)CC23CC4CC(CC(Br)(C4)C2)C3)c1,-2.3,-3.0,-15.8,-5.2,2633,-8.3,-2.9
CN1c2ccccc2C(O)=C(C(=O)Nc2ccccc2)S1(=O)=O,.,.,-10.0,2.4,6640,.,.
Cc1cc(N2CCCCCC2)n2nc(C)c(-c3ccccc3)c2n1,3.5,9.6,6.3,2.7,4266,0.2,8.5
